ClpP mod: qHTS Assay for Activators of ClpP; purified B. subtilis ClpP, FRET peptide cleavage, 20 min; Potency, µM (titrated, usually from 57.5 µM), for inactives: top-dose activity change, negative = active; 340,000 tested, 1.9% active; AID 651965, 2013; active = well fitted falling curve with a large enough effect; inconclusive = small, poorly fitted or top-dose-only effect; inactive = no such curve, though single readings can be large or run the other way; note: potency is the fitted concentration of half-maximal effect; the source files actives as falling curves though it sought activators and does not explain the sign; nearly all actives have a fitted effect of over 65% in size; many hits overshoot -100%
Target sequence (P80244 whole entry, looked up): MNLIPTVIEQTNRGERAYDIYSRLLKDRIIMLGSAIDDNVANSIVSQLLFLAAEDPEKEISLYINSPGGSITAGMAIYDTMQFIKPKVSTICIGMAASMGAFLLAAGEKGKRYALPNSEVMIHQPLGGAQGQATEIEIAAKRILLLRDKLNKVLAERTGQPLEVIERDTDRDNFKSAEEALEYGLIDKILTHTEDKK
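FRET quenching reversal measured ClpP activation: 10 microg/mL B. subtilis ClpP at pH 8 with the FRET-FV decapeptide, read at 430 nm after 320 nm excitation. The 20-min minus 0-min signal was scaled between DMSO/no-enzyme wells and ADEP (5.8 microM final).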
Sfp inh: Sfp phosphopantetheinyl transferase inhibition; Q9F4F7; Biochemical Sfp PPTase activity, qHTS; Potency, µM, without a hit: max response, negative = inhibition, hits mostly inhibitors; 310,000 tested, 3.5% active; AID 1490; active = well fitted inhibition curve with a large enough effect; inconclusive = small, poorly fitted or top-dose-only effect, or another doubt; inactive = no such curve, though single readings can be large or run the other way;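 note: the enzyme is Sfp with the accession as filed and its product quenches rhodamine fluorescence; potency is the fitted concentration of half-maximal effect; 0% = enzyme reaction without inhibitor and -100% = no enzyme wells; top concentration of the series not given in the record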
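Sfp 15 nM + cpd, 15 min RT; start w/ rhodamine-CoA 5 uM, BHQ-2-YbbR 12.5 uM (final); 50 mM Hepes pH 7.6, 10 mM MgCl2, 0.01% NP-40, 0.01% BSA; read 525/598 nm at 0 and 30 min.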
PINK1 expr mod: PINK1 expression modulation | PINK1 immunofluorescence, high-content cytometry, 24 h | Potency, µM (titrated, usually from 76.6 µM), for the others: top-dose activation (PINK1 increase), actives largely listed as activators | 410,000 tested, 0.2% active | AID 624263; active = well fitted activation curve with a large enough effect; inconclusive = small, poorly fitted or top-dose-only effect; inactive = flat fitted curve, though single readings scatter; cell line not stated here;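 note: potency is the fitted concentration of half-maximal effect; % of control where 0% means no effect; nearly all actives have a fitted effect of over 65% in size; a mitochondrial uncoupler was the plate control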
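Fluorescence from anti-PINK1 antibody, together with nuclear and cell stains, was scanned on a laser-scanning cytometer. Before staining, stable-line cells were incubated 24 hours with compounds at 5 concentrations; primary antibody 12 h at 10 degrees C.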
Menin-MLL FL inh: inhibitors of human menin-MLL interaction, wild-type MLL peptide | 290,000 tested, under 10 active | AID 1766 | Fluorescence polarization, fluorescein-MLL peptide displacement from menin | FP activity change, % at 61.4 µM; inconclusive = falling polarisation curve, or a change in total fluorescence; inactive = total fluorescence flat and polarisation flat or rising; no compound was filed as active; the % refers to the polarisation; negative = inhibition;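 note: % of control where 0% means no effect; inhibitors lower the polarisation; unlabelled MLL peptide was the positive control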
gsp antag: gsp mutant antagonism; gsp-mutant cells, cAMP HTRF, 30 min; control for the full effect not named in the record; Potency, µM (series often up to 76.9 µM), without a hit: top-dose activity change, negative = inhibition, most hits filed as inhibitors; AID 624288; 340,000 tested, 0.4% active; active = falling curve of any shape with a large fitted effect; inconclusive = falling curve, mostly with a smaller effect; inactive = flat or rising curve; cell line not stated here;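 note: intracellular cAMP measured with PDE inhibitor Ro 20-1724 present during compound exposure; potency is the fitted concentration of half-maximal effect; % is set by controls: 0 for no effect and ±100 for the full control effect; nearly all actives have a fitted effect of over 65% in size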
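HTRF cAMP measurement after 30 min RT detection following 30 min, 37C compound treatment alongside […] (added as 300 uM solution) in G418-selected cells seeded at 2000/well and grown 16–24 h.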
gsp agonist: gsp mutant agonism | gsp mutant cells, cAMP HTRF, 30 min; control for the full effect not named in the record | Potency, µM (top dose mostly 76.9 µM), for the others: at the top dose activation (cAMP increase), usual class: activators | 340,000 tested, 0.13% active; active = well fitted activation curve with a large enough effect; inconclusive = small, poorly fitted or top-dose-only effect, or another doubt; inactive = no such curve, though single readings can be large or run the other way; cell line not stated here;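 note: phosphodiesterase inhibitor Ro 20-1724 added with compounds to block cAMP breakdown; potency is the fitted concentration of half-maximal effect; nearly all actives have a fitted effect of over 60% in size; about a fifth of the inactives were tested at one dose only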
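Cells in DMEM/10% FBS with G418 were pretreated with compounds in DMSO plus […] (300 uM stock) for 30 min at 37C. cAMP was measured by HTRF (cAMP-d2 plus anti-cAMP antibody-K) after 30 min at room temperature.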
D2 agonist: agonists of human D2 dopamine receptor (beta-arrestin); AID 624465; DiscoveRx PathHunter D2 beta-arrestin, luminescence, 90 min; 100% = 57 uM dopamine signal; 360,000 tested, 0.084% active; P14416; activation, % (no concentration beside the values); in the data active = activation above about 40%; inconclusive = about 15% to 40%; inactive = below about 15%; note: compound concentration not given in the record; the text of the record calls up to 30% inactive
Target sequence (P14416 whole entry, looked up): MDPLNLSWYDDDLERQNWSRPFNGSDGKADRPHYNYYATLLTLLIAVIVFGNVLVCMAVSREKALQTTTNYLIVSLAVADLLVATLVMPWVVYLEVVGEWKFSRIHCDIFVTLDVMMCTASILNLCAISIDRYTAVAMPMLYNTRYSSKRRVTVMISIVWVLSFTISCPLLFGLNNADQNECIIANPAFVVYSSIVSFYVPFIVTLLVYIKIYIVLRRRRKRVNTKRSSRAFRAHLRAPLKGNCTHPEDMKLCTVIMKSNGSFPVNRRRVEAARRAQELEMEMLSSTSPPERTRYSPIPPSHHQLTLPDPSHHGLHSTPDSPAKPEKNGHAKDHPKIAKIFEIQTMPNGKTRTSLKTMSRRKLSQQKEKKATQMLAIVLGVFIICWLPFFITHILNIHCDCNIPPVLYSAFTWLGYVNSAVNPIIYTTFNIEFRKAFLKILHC
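Agonist mode: compounds alone added to overnight-plated D2 PathHunter cells for 90 min at 37 C, with 57 uM final dopamine (EC100) defining full response. Beta-arrestin recruitment detected by chemiluminescent reagent, read after 1 h at ambient temperature.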
Starred values were filed as active, the others as inactive; & = joins results of further samples; [ ] = dose if it differs, or a comment.

Screening CCOC(=O)N1CCN(C(=O)C2CCN(S(=O)(=O)c3ccc(Br)s3)CC2)CC1 returned ClpP mod -2.7%, Sfp inh -1%, PINK1 expr mod -1.3%, Menin-MLL FL inh 2.5, gsp antag -3%, gsp agonist -50%[inhibitor] and D2 agonist 2.7.
Screening Cc1c(C(=O)Oc2cccc3cccnc23)cccc1[N+](=O)[O-] returned Sfp inh -19%, PINK1 expr mod 1.4%, Menin-MLL FL inh -2.0, gsp agonist -10%[15.4 µM] and D2 agonist 2.9.
For COc1ccccc1NS(=O)(=O)c1cc(Cl)ccc1OC the results were ClpP mod 0.0%, Sfp inh 2%, PINK1 expr mod 3.2%, Menin-MLL FL inh 4.0, gsp antag 1%, gsp agonist -21% and D2 agonist -0.4.
For COc1cc(C)nc(N2CCC(C(=O)NC3CCCCC3)CC2)n1 the results were ClpP mod 0.6%, Sfp inh 13%, Menin-MLL FL inh 7.7, gsp antag 7%, gsp agonist -74%[inhibitor] and D2 agonist 1.1.
`O=C(Nc1cccc(F)c1)Nc1ccc2c(c1)OCO2` gave ClpP mod -3.8%, Sfp inh 1%, PINK1 expr mod 0.1%, Menin-MLL FL inh 2.6, gsp antag -2%, gsp agonist 9% and D2 agonist 0.3.
Screening CC(C)OC(=O)C1C(=O)CC(C)(O)C(C(=O)OC(C)C)C1c1ccc([N+](=O)[O-])cc1 (stereo unspecified) returned ClpP mod -8.4%, Sfp inh 24%, PINK1 expr mod 1.7%, Menin-MLL FL inh -1.3, gsp antag 0%, gsp agonist 1%[15.4 µM] and D2 agonist -2.7.
For O=C(CCC(=O)Nc1ccccc1Cl)NNC(=O)c1ccco1 the results were ClpP mod -0.5%, Sfp inh 16%, PINK1 expr mod 1.1%, Menin-MLL FL inh 0.8, gsp antag 7%, gsp agonist -5% and D2 agonist 0.2.
`O=C(Nc1cnc2ccccc2c1)N1CCOCC1` gave ClpP mod -15%, Sfp inh 7%, PINK1 expr mod 1.8%, Menin-MLL FL inh -2.1, gsp antag 1%, gsp agonist 1% and D2 agonist -3.6.
COC(=O)c1ccc(=O)n(Cc2ccc3c(c2)OCO3)c1 was read as ClpP mod 1.1%, Sfp inh 15%, PINK1 expr mod 1.8%, Menin-MLL FL inh -3.0, gsp antag 4%, gsp agonist 2% and D2 agonist -1.8.
For O=Nc1c(-c2c(O)[nH]c3cc(Br)ccc23)[nH]c2ccccc12 the results were ClpP mod -0.1%, Sfp inh -18%, PINK1 expr mod -0.9%, Menin-MLL FL inh -1.8&-1.9, gsp antag 20µM* and D2 agonist -4.8.
For CCNC(=S)N(CCc1ccccc1C)Cc1cc2cc(OC)c(OC)cc2[nH]c1=O the results were ClpP mod inconclusive, Sfp inh 1%, PINK1 expr mod 4.2%, Menin-MLL FL inh 0.2, gsp antag 0%, gsp agonist -10% and D2 agonist -2.4.
CCCC/C=C/C(NC(=O)c1ccc(-c2ccccc2)cc1)c1ccccc1 (stereo unspecified) was read as ClpP mod -3.7%, Sfp inh 40%[activator], PINK1 expr mod 2.7%, Menin-MLL FL inh -4.6, gsp antag 10%, gsp agonist -3% and D2 agonist -4.7.
Screening CC1(C(=O)N2CCN(c3ccccc3)CC2)CC1(Cl)Cl (stereo unspecified) returned Sfp inh 22%, PINK1 expr mod -1.9%, Menin-MLL FL inh 0.5, gsp antag 2%, gsp agonist 6% and D2 agonist -1.4.
CSc1cccc(NC(=S)N(Cc2ccccc2)Cc2ccccn2)c1 was read as Sfp inh 9%, PINK1 expr mod 2.9%, Menin-MLL FL inh -1.2, gsp antag -19%, gsp agonist -1%[15.4 µM] and D2 agonist -1.6.
`CC(=O)N1CCCN(Cc2cn(-c3cccc(C)c3)nc2-c2cccc(F)c2)CC1` gave ClpP mod -6.7%, Sfp inh -1%, PINK1 expr mod 0.8%, Menin-MLL FL inh 0.6, gsp antag -7%, gsp agonist -21% and D2 agonist -1.6.
Screening Cn1c(=O)c2cc(NC(=O)Cc3ccccc3F)ccc2n1Cc1ccc(Cl)cc1 returned ClpP mod 5.0%, PINK1 expr mod 5.5% and D2 agonist 6.0.
O=C(CN1CCSc2ccccc21)NCCCc1ccccc1 was read as ClpP mod -3.2%, Sfp inh 11%, PINK1 expr mod -1.3%, Menin-MLL FL inh -1.2, gsp antag 3%, gsp agonist 8%[15.4 µM] and D2 agonist -1.8.
Screening CC12CCC(=O)N1C(C(=O)Nc1nc(-c3ccc(F)cc3)cs1)CS2 (stereo unspecified) returned PINK1 expr mod 3.0%, gsp antag 8%, gsp agonist -15%[15.4 µM] and D2 agonist 0.0.
For COc1ccccc1NC(=O)C1CCCN(c2cc(C)nc3ncnn23)C1 (stereo unspecified) the results were ClpP mod 0.6%, Sfp inh 12%, PINK1 expr mod 2.6%, Menin-MLL FL inh 2.1, gsp antag 21%, gsp agonist 17% and D2 agonist -2.1.
For CC(C)NC(=O)c1onc(CSc2ccc(F)cc2)c1C(=O)O the results were ClpP mod 1.6%, Sfp inh -8%, PINK1 expr mod 0.8%, Menin-MLL FL inh 5.7, gsp antag 3% and D2 agonist -5.3.
`Cc1cc(F)ccc1C(O)c1ncc(-c2ccccc2C(F)(F)F)[nH]1` (stereo unspecified) gave ClpP mod -4.6%, PINK1 expr mod 0.5% and D2 agonist 6.1.
For O=C(C1CCC1)N1CCN(c2ccc(C(F)(F)F)cc2[N+](=O)[O-])CC1 the results were ClpP mod -1.0%, Sfp inh -2%, PINK1 expr mod -1.3%, gsp antag -17%, gsp agonist 13% and D2 agonist -4.0.
`CN(C)c1cc(=O)n2c(n1)SCCC2` gave ClpP mod 1.9%, Sfp inh 1%, PINK1 expr mod 0.7%, Menin-MLL FL inh 6.4, gsp antag -10%, gsp agonist 25% and D2 agonist -3.2.
`Cn1c(SCC(=O)Nc2ccccc2F)nnc1-c1cc2ccccc2o1` gave ClpP mod -4.1%, Sfp inh 2%, PINK1 expr mod 3.4%, Menin-MLL FL inh 0.2, gsp antag 3%, gsp agonist 9% and D2 agonist 0.0.
For CC(CCc1ccccc1)NC(=O)C1CCN(c2nnc(-n3cccc3)s2)CC1 (stereo unspecified) the results were ClpP mod 0.8%, Sfp inh -11%, PINK1 expr mod 9.2%, Menin-MLL FL inh 0.8, gsp antag -2%, gsp agonist 13µM* and D2 agonist -3.8.
COc1ccc(CN2CCc3ccc(NC(=O)c4ccncc4)cc3C2)c(F)c1 was read as ClpP mod 0.4%, Sfp inh 10%, PINK1 expr mod 0.2%, gsp antag -3%, gsp agonist 3%[15.4 µM] and D2 agonist 5.7.
For O=C1C2CCCN2C(c2ccc(Br)cc2)N1c1ccc(F)cc1 (stereo unspecified) the results were ClpP mod 0.7%, Sfp inh 25%, PINK1 expr mod -1.7%, Menin-MLL FL inh 3.6, gsp antag 50µM*, gsp agonist -5% and D2 agonist 0.7.
For O=C(CSc1nc2ccccc2o1)Nc1nc(-c2ccccc2)cs1 the results were ClpP mod inconclusive, Sfp inh 4%, PINK1 expr mod -0.2%, Menin-MLL FL inh 0.9, gsp antag -6%, gsp agonist -7% and D2 agonist -2.6.
Screening COc1ccc(NC(=O)c2ccc(-n3cncn3)c([N+](=O)[O-])c2)cc1OC returned ClpP mod -3.8%, PINK1 expr mod -0.1%, gsp antag 4%, gsp agonist -3% and D2 agonist 3.4.
Screening O=C1NC2=C(C(=O)CCC2)C(c2ccccc2)N1 (stereo unspecified) returned Sfp inh -12%, PINK1 expr mod -2.2%, Menin-MLL FL inh -1.4, gsp antag 8%, gsp agonist 10% and D2 agonist -3.9.
Screening O=C(CN1CCN(C(=O)c2cc(C3CC3)nn2-c2ccccc2)CC1)Nc1ccc(F)cc1 returned ClpP mod -1.4%, PINK1 expr mod -0.6%, gsp agonist -35%[inhibitor] and D2 agonist -2.4.
Screening Cc1ccc(P(C)(=O)c2ccc(C)cc2)cc1 returned ClpP mod 0.8%, Sfp inh 22%, PINK1 expr mod -0.6%, Menin-MLL FL inh 4.2, gsp antag 7%, gsp agonist -29% and D2 agonist -3.2.
O=c1cc(O)c2sc3nc(-c4ccccc4)cc(C(F)(F)F)c3c2[nH]1 was read as ClpP mod -6.5%, Sfp inh -22%, PINK1 expr mod 2.1%, Menin-MLL FL inh 3.1, gsp antag -21%, gsp agonist inconclusive and D2 agonist -2.7.
`O=C(c1cc(-c2ccccc2Cl)nc2ccccc12)N1CCN(c2ccccc2O)CC1` gave ClpP mod 0.6%, PINK1 expr mod -1.5%, gsp antag inconclusive, gsp agonist -41%[inhibitor] and D2 agonist -4.0.
For O=C(Nc1ccc(N2CCOCC2)cc1)C1CC1 the results were ClpP mod -0.4%, Sfp inh 2%, PINK1 expr mod -2.4%, Menin-MLL FL inh -1.0, gsp antag 0%, gsp agonist -34%[inhibitor] and D2 agonist 1.8.
CCN(C(=O)CSc1ncnc2c1cnn2-c1ccccc1)C1CCS(=O)(=O)C1 (stereo unspecified) was read as ClpP mod -6.3%, PINK1 expr mod 1.0%, gsp antag -8%, gsp agonist inconclusive and D2 agonist 0.5.
Screening C#CCn1ccc(O)c(Cc2ccccc2)c1=O returned ClpP mod 1.9%, Sfp inh 15%, PINK1 expr mod 1.6%, Menin-MLL FL inh -4.0, gsp antag -1%, gsp agonist -11%[15.4 µM] and D2 agonist -0.4.
For COc1ccc(C(=O)Nc2ccccc2C(=O)NCc2cccnc2)cc1OC the results were ClpP mod 0.2%, Sfp inh 17%, PINK1 expr mod 4.2%, Menin-MLL FL inh 1.2, gsp antag 7%, gsp agonist inconclusive and D2 agonist -1.3.
For CCCc1cc(Nc2ccccc2OCC)n2ncnc2n1 the results were ClpP mod -2.4%, Sfp inh 5%, PINK1 expr mod -1.5%, Menin-MLL FL inh -2.7, gsp antag 9%, gsp agonist 2% and D2 agonist -0.1.

2 entries picked at random from the list so far, as already listed:
O=c1cc(O)c2sc3nc(-c4ccccc4)cc(C(F)(F)F)c3c2[nH]1 was read as ClpP mod -6.5%, Sfp inh -22%, PINK1 expr mod 2.1%, Menin-MLL FL inh 3.1, gsp antag -21%, gsp agonist inconclusive and D2 agonist -2.7.
`O=C(c1cc(-c2ccccc2Cl)nc2ccccc12)N1CCN(c2ccccc2O)CC1` gave ClpP mod 0.6%, PINK1 expr mod -1.5%, gsp antag inconclusive, gsp agonist -41%[inhibitor] and D2 agonist -4.0.
